VDR inhibitor: Inhibitors of the vitamin D receptor (VDR): qHTS; VDR-SRC2-3 peptide fluorescence polarization, 2 h; 0.93% of 400,000 active; Potency, µM, for inactives: max response, negative = inhibition, usual class: inhibitors; Vitamin D3 receptor (Homo sapiens), P11473; active = well fitted inhibition curve with a large enough effect; inconclusive = small, poorly fitted or top-dose-only effect, or another doubt; inactive = no such curve, though single readings can be large or run the other way; also: series mostly up to about 120 µM
Target sequence (P11473 whole entry, looked up): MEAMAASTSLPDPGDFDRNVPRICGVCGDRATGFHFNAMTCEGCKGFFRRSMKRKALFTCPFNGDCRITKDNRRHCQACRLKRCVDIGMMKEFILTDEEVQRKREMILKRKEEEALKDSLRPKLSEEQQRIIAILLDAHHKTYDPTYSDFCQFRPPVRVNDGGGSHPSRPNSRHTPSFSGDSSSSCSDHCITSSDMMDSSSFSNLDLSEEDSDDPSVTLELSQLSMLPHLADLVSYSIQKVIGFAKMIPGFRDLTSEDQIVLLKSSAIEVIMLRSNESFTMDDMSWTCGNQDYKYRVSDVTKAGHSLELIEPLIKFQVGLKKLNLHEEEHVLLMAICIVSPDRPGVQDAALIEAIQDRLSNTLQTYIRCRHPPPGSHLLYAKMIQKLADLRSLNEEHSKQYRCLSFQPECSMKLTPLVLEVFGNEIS
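After 23 nl compound addition and a short centrifugation, plates sat for 2 hours at ambient temperature; polarization of fluorescence then indicated loss of VDR binding to peptide SRC2-3.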
Numbers without * were called inactive; ? = inconclusive; & = joins results of further samples; [ ] = remark or other dose. % is scaled to controls: 0 for no effect and ±100 for the full control effect; potency is read from the fitted curve at half-maximal effect. A portion of the library; count on the stated rates, not on these rows.

compound	VDR inhibitor
O=C(NCc1ccco1)C1CC(c2cccc([N+](=O)[O-])c2)=NO1 (stereo unspecified)	-22.6%
CN(C)CCCNC(=S)N(CCCN(C)C)Cc1cc2cc3c(cc2[nH]c1=O)OCO3	-2.7%
COc1ccc(C(C)=O)cc1COC(=O)c1c(C)nn(-c2ccccc2)c1C	-6.0%
Cc1ccc(-c2nnc3c4ccccc4c(C)nn23)cc1NC(=O)c1ccccc1	-2.0%
O=C(Nc1ccccc1)NC1CCS(=O)(=O)C1 (stereo unspecified)	-2.8%
CNC(=O)c1nc(C)n(-c2ccc(Cl)cc2Cl)n1	?
O=C(Nc1ccc2nc(SCc3ccccc3)sc2c1)c1cccc(F)c1	9.7%
CCCCN(C)/C=N/c1c(C#N)cnn1-c1ccc(C)cc1	-5.8%
CC1(C)CC2(CCO1)N1CC3(C)CN2CC(C)(C1)C3O (stereo unspecified)	0.1%
CC(C)c1ccc(NC2=NCC(=O)N2Cc2cccs2)cc1	9.6%
Cc1cc(C)cc(OCCSc2nc3ccc(NC(=O)COc4ccccc4)cc3s2)c1	0.6%
CC(=O)Nc1ccc(NCN2C(=O)[C@@H]3[C@H]4CC[C@H](C4)[C@@H]3C2=O)cc1	-6.0%
Cc1ccc(C)c(OCCC(=O)OCC(=O)N2CCN(S(=O)(=O)c3ccc(Cl)cc3)CC2)c1	-8.2%
Cc1ccc(-c2nn3c(-c4ccccc4)nnc3c3ccccc23)cc1	-12.0%
COC(=O)c1cc2n(n1)CCCNC2=O	0.2%

Three compounds from above, sorted by the value under VDR inhibitor, descending:
canonical_smiles | VDR inhibitor
Cc1cc(C)cc(OCCSc2nc3ccc(NC(=O)COc4ccccc4)cc3s2)c1 | 0.6%
COC(=O)c1cc2n(n1)CCCNC2=O | 0.2%
Cc1ccc(-c2nn3c(-c4ccccc4)nnc3c3ccccc23)cc1 | -12.0%

Following part:
compound	VDR inhibitor
CC(C)S(=O)(=O)c1csc(NC(=O)Nc2cccc([N+](=O)[O-])c2)c1Cl	-20.8%
Cn1nc(C(F)(F)F)c2cc(C(=O)Nc3ccc(F)cc3)sc21	13.2%
CCOC(=O)Cc1cc(=O)[nH]c(/N=C(\N)Nc2ccc(C)cc2C)n1	10.8%
O=C(NNC(=O)c1ccccc1OCc1ccccc1)c1ccccc1F	12.0%
CCOC(=O)c1sc(NC(=O)c2cc(-c3cccc(O)c3)on2)c(C(=O)OCC)c1C	-12.5%
Cc1cc2c(c(=O)o1)C(C13C=CC(CC1)C3)C(C#N)=C(N)O2 (stereo unspecified)	4.8%
CCc1ccc(NC(=O)CSC2=Nc3ccccc3C3=NC(CC(=O)NC4CCCCC4)C(=O)N23)cc1 (stereo unspecified)	1.5%
COc1cc2nc(C3CCC3)nc(N3CCN(c4ccccc4OC)CC3)c2cc1OC	-7.5%
CC(C)(C)C(=O)CSc1nnc(Nc2ccccc2)s1	-8.6%
O=C(/C=C/c1ccccc1)Nc1cc(C(=O)O)cc(C(=O)O)c1	-4.3%
O=C(CSc1cccc[n+]1[O-])c1ccc(Cl)cc1	-6.6%
O=C1CC(c2cccc(Cl)c2)CC(O)=C1C=Nc1cccc(Cl)c1 (stereo unspecified)	12.2%
Cc1nonc1NC(=O)CSc1nc2ccccc2[nH]1	-4.6%
CC(C)(C)C1COc2ccccc2N1C(=O)c1cccc(Cl)c1 (stereo unspecified)	-8.5%
CCCOC(=O)c1ccc(Oc2cn[nH]c2-c2ccc(OC)cc2O)cc1	4.7%

(continued)
compound	VDR inhibitor
COc1cccc(CN2CCC(C(=O)N3CCN(Cc4ccc5c(c4)OCO5)CC3)CC2)c1OC	14.6%
Cc1ccc(NC(=O)c2nnn(CC(=O)Nc3ccc(C)c(Cl)c3)c2N)c(C)c1	7.1%
COc1ccc(/C=N/NC(=O)CC(=O)NC2CCCCC2)cc1	12.5%
COc1ccc(NS(=O)(=O)c2ccc(S(=O)(=O)N3CCOCC3)cc2)cc1	?
Cc1cccc(-c2nc(N)nc(N)n2)c1	16.4%
O=C(c1ccccc1)c1cccn1CC(=O)N1CCc2ccccc2C1	16.9%
O=C(COC(=O)C1(c2ccccc2F)CCCC1)NC1CCS(=O)(=O)C1 (stereo unspecified)	15.5%
CN(C)C=NC1=NN(c2cccc(C(F)(F)F)c2)CC1	-3.5%
Cc1nnc(SCc2c(Cl)cccc2[N+](=O)[O-])s1	3.5%
CCOc1ccc(C(c2c(O)cc(C)n(CCOC)c2=O)N2CCN(c3ccccc3)CC2)cc1 (stereo unspecified)	?
CN(C)CCCN(Cc1cc2cc3c(cc2[nH]c1=O)OCO3)C(=S)Nc1cccc(Cl)c1	-12.6%
CC(=O)c1ccc(N2CCN(C(=S)Nc3ccc(Oc4ccccc4)cc3)CC2)cc1	11.8%
O=C(COc1ccccc1)Nc1nc2cc3c(cc2s1)OCO3	-12.6%
O=C(C(c1ccccc1)c1ccccc1)N1CCC(c2nc(-c3ccccc3Cl)no2)CC1	31.0%[activator]
Cc1ccc(C)c(CN2CCC(CNC(=O)CCc3nnc4ccc(N5CCC(C)CC5)nn34)CC2)c1	-4.1%

The list continues.
compound	VDR inhibitor
COc1ccc(C)cc1S(=O)(=O)Nc1cccc(C)c1	14.0%
COc1ccc(NC(=O)C2CCCN(c3nn4c(=O)cc(C)nc4s3)C2)c(OC)c1 (stereo unspecified)	-4.9%
O=C(NCc1ccccn1)Nc1ccc(Br)cc1Cl	1.8%
Cc1cc(C)nc(CCNC(=O)c2cc(COc3ccccc3)on2)n1	16.6%
Cc1ccc(C)c(NC(=O)CCCN2C(=O)C(c3ccccc3)Oc3cccnc32)c1 (stereo unspecified)	16.2%
COc1ccccc1CC(=O)O/N=C(\N)Cc1cccc2ccccc12	-7.6%
CCOC(=O)NC(Nc1ccc(OC)cc1)(C(F)(F)F)C(F)(F)F	4.1%
COc1ccc(/C=N/NC(=O)COc2cc(C)cc(C)c2)cc1COC(C)=O	-6.6%
CCC(=O)N1CCc2cc(S(=O)(=O)N3CCN(C(=O)c4ccco4)CC3)ccc21	-9.6%
COC(=O)c1cccc(C23CC4(C2)[C@H](CN(Cc2ccc(-c5ccccc5)cc2)[C@@H]4c2ccccc2)C3c2ccccc2)c1 (stereo partly specified)	-10.9%
CC(C)=C(NC(=O)c1ccccc1)C(=O)NCc1ccccc1	-3.6%
CCCN1CCN(CCCNC(=O)c2c(C)nn(-c3ccc(F)cc3)c2-n2cccc2)CC1	0.0%
CC(C)CCNC(=O)C(c1ccco1)N(C(=O)Cn1nnc2ccccc21)c1ccc2c(c1)OCO2 (stereo unspecified)	-10.7%
Cc1noc(C)c1-c1nc(N(C)C)c2ccccc2n1	?
COc1ccc(Cn2c(=O)[nH]c3cc(C(=O)N4CCN(c5ccc(OC)cc5)CC4)ccc3c2=O)cc1	-27.3%

2 entries from above, as labelled records:
CC(C)S(=O)(=O)c1csc(NC(=O)Nc2cccc([N+](=O)[O-])c2)c1Cl
  VDR inhibitor = -20.8%
O=C(COC(=O)C1(c2ccccc2F)CCCC1)NC1CCS(=O)(=O)C1 (stereo unspecified)
  VDR inhibitor = 15.5%

Going on with the list:
compound	VDR inhibitor
CCn1c(CNC(=O)C23CC4CC(CC(C4)C2)C3)nnc1SCC(=O)Nc1nnc(C)s1	?
COCCn1c(SCC(=O)NC(=O)NCc2ccccc2)nc2ccccc2c1=O	18.8%
COc1nc(Cc2ccc(Cl)cc2)nc2ccccc12	-8.7%
O=C(Nc1cc(C(F)(F)F)ccc1N1CCCC1)c1cccnc1	6.5%
O=C(Cn1c2c(c(=O)n3ncnc13)CCC2)N/N=C/c1ccc(Cl)cc1	-12.0%
CCCn1c(N)c(C(=O)CSc2nnc(Cc3cccs3)n2C2CC2)c(=O)n(C)c1=O	3.4%
Cc1cc(C)n(CCC(=O)N=Nc2c(O)[nH]c3ccc(Br)cc23)n1	-8.6%
CCOc1ccc(-c2nnn(CC(=O)Nc3cccc(OC)c3)n2)cc1OCC	-10.1%
CC(C)Oc1ccc(/C=N/NC(N)=S)cc1	-7.1%
COc1ccc(Cl)cc1NC(=O)CN1CCC(NC(=O)C2CC2)CC1	2.1%
Cc1ccc(NC(=O)CCC(=O)NNC(=S)Nc2ccccc2)c(C)c1	-0.9%
Cc1ccc(CN2CCN(/N=C/c3cccnc3)CC2)c(C)c1	-4.8%
Cc1nc(C)n(CC(O)COc2ccc3ccccc3c2)n1 (stereo unspecified)	9.0%
CCn1cnc2c1c(=O)n(CC(=O)Nc1ccc3c(c1)OC(F)(F)O3)c(=O)n2Cc1ccccc1	7.2%
C/C(=N\NC(=O)c1cccc2ccccc12)c1cccs1	8.5%

Exported with the structure last: part of the list above.
| VDR inhibitor | SMILES |
| --- | --- |
| -0.9% | Cc1ccc(NC(=O)CCC(=O)NNC(=S)Nc2ccccc2)c(C)c1 |
| -4.8% | Cc1ccc(CN2CCN(/N=C/c3cccnc3)CC2)c(C)c1 |
| 9.0% | Cc1nc(C)n(CC(O)COc2ccc3ccccc3c2)n1 (stereo unspecified) |
| 7.2% | CCn1cnc2c1c(=O)n(CC(=O)Nc1ccc3c(c1)OC(F)(F)O3)c(=O)n2Cc1ccccc1 |
| 8.5% | C/C(=N\NC(=O)c1cccc2ccccc12)c1cccs1 |

Further entries
smiles	VDR inhibitor
COc1ccc(/C=C(\C#N)C(=O)Nc2ccc3[nH]c(=O)[nH]c3c2)cc1	-8.7%
COC(=O)/C(=N\Nc1ccc(Cl)cc1)Sc1nnc(-c2ccc(OC)cc2)n1C	-11.8%
COC(=O)C1=C(C)N(C(C)C)C(=O)C1(NC(=O)C1CCCCC1)C(F)(F)F (stereo unspecified)	15.8%
CNC(=O)C1CC(=O)N(c2ccc(F)c(Cl)c2)C1 (stereo unspecified)	10.4%
O=C(CCc1nnc2n(Cc3ccccc3)c(=O)c3ccccc3n12)NCCN1CCOCC1	-13.7%
O=C(Nn1cc(C(=O)N2CCN(c3ccccc3F)CC2)c2ccccc2c1=O)c1cnccn1	-10.1%
CCCN(c1ccc(C(C)C)cc1)S(=O)(=O)c1c(C)[nH]c(=O)[nH]c1=O	3.5%
COc1ccccc1NS(=O)(=O)c1cc(-c2cc(C)no2)ccc1OC	-1.8%
Cc1nc2ccc(S(=O)(=O)CCC(=O)Nc3ccc(Cl)cc3)cc2s1	-4.7%
CCOC(=O)C(Cc1ccccc1)C(=O)Nc1nccs1 (stereo unspecified)	-4.4%
COc1ccc(-c2cc3cc(-c4cc(OC)c(OC)c(OC)c4)ccc3o2)cc1	-11.5%
CCCNC(=S)N1CCC(NC(=O)Nc2ccc(C)cc2)CC1	-15.6%
NC(=O)CSc1nc(-c2ccccc2)c(-c2ccccc2)o1	7.6%
CCN(C(=O)C1CCN(S(=O)(=O)c2cc(Br)cc3c2N(C(C)=O)CC3)CC1)c1cccc(C)c1	2.1%
CCOC(=O)c1cnc2ccc(Br)cc2c1NCCN1CCOCC1	?

Later entries
smiles	VDR inhibitor
Cc1cc(NC(=O)c2cc(-c3ccccn3)nc3ccc(Br)cc23)no1	1.8%
COc1ccc(NC(=O)CCNS(=O)(=O)c2ccc(C)c(C)c2)cc1OC	9.5%
COc1ccc2cc(-c3nc4ccccc4n3C)c(=O)oc2c1	8.4%
COc1ccc(N(Cc2ccccc2)S(=O)(=O)c2ccc(C)cc2)cc1	1.5%
Cc1ccc(OCC(=O)Nc2ccc3oc(=O)ccc3c2)cc1	12.4%
COC(=O)c1c(NC(=O)CN2CCN(c3ccccc3)CC2)c2c(C)cccc2n1C	15.1%
CNc1nnc(Sc2ncccc2[N+](=O)[O-])s1	-19.8%
CC(=O)NS(=O)(=O)c1ccc(NC(=O)c2cccc(S(=O)(=O)N3CCc4ccccc43)c2)cc1	-6.4%
CCn1cc(S(=O)(=O)N2CCc3ccccc3C2)cn1	-23.0%
CC1CCC(C(C)[C@H]2CCC3C4CC(=O)C5C[C@@H](O)CC[C@]5(C)C4CC[C@@]32C)=NC1 (stereo partly specified)	-9.3%
COc1cccc(-c2nccc(NCc3cccnc3)n2)c1	-11.2%
O=C(NNC(=O)c1cccc2ccccc12)c1ccc(-c2ccccc2)cc1	0.5%
Cc1ccc(CNC(=O)CCCC(=O)O)cc1	21.6%
S=c1[nH]nc(COc2ccccc2)n1/N=C/c1c(Cl)cccc1Cl	16.3%
O=C(Nc1cccnc1)c1cccs1	8.1%

(further entries)
smiles	VDR inhibitor
Brc1cccc(-c2nnc(CN3CCN(c4ccccn4)CC3)o2)c1	2.4%
CCCn1c2ccccc2c2nnc(SCC(=O)Nc3cc(C)on3)nc21	-4.2%
CC(OC(=O)c1cc2sccc2n1C)C(=O)NCc1ccc2c(c1)OCO2 (stereo unspecified)	3.5%
COc1cccc(N2CCN(S(=O)(=O)c3ccc(-c4cnc(C5CC5)o4)cc3)CC2)c1	-7.4%&-7.7%
N#CCCN(C(=O)COC(=O)c1cc(=O)[nH]c2ccccc12)c1ccccc1	12.0%
O=C(CC1C(=O)NCCN1Cc1ccccc1C(F)(F)F)NCCN1CCCCC1=O (stereo unspecified)	-8.3%
O=S(=O)(NCc1ccccc1)c1ccc2ccccc2c1	2.0%
CCOC(=O)Cc1csc(NC(=O)CSc2nc(=O)[nH]c3c2CCC3)n1	2.0%
O=C(COC(=O)c1cc(Br)c(Br)s1)NCCC1=CCCCC1	-8.2%
C=CCn1c(C)cc(C2=NNC(=NC(C)(C)C)SC2)c1C	-7.1%
O=C1/C(=C/c2ccco2)N=C(N2CCCCC2)N1c1ccccc1	-8.0%
CC1(C)CC(=O)c2sc(NC(=O)CN3C(=O)CCC3=O)nc2C1	-16.3%
Cc1cc(C)c2c(CC(=O)Nc3ccc(F)cc3)coc2c1	12.0%
